Compound activity deposited in PubChem by National Center for Advancing Translational Sciences (NCATS).
Resorufin autofl: qHTS Assay for Spectroscopic Profiling in Resorufin Spectral Region; Compound fluorescence, resorufin region 547/598 nm, buffer; stronger effect = higher value; max dye-equivalent concentration, M; 0.04% of 59,000 active; active = above 10 nM dye equivalent; inconclusive = 1 to 10 nM; inactive = 1 nM or less; a few of its hits are not listed in these tables; note: highest value over a series up to 38 µM
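Tris 100 mM pH 8.0; compound added, 15 min RT; CCD imager read, ex 547 nm/em 598 nm; signal normalized to resorufin standard curve (six concentrations per plate) as dye-equivalent concentration.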
TSHR ag: qHTS Assay for Agonists of the Thyroid Stimulating Hormone Receptor | Thyrotropin receptor (Homo sapiens), P16473 | HEK293-CNG-TSHR cells (CNG channel as cAMP sensor), membrane potential dye, cAMP | Potency, µM (series often up to 57.1 µM), for the others: top-dose activation, usual class: activators | 0.48% of 73,000 active | AID 926, 2007; active = well fitted activation curve of enough size with the parental cells flat; inconclusive = any curve in the parental cells; inactive = parental cells flat and receptor cells flat or falling; note: potency is the fitted concentration of half-maximal effect; % of control where 0% means no effect; weak receptor curves with flat parental cells got no call and are not listed
Target sequence (P16473 whole entry, looked up): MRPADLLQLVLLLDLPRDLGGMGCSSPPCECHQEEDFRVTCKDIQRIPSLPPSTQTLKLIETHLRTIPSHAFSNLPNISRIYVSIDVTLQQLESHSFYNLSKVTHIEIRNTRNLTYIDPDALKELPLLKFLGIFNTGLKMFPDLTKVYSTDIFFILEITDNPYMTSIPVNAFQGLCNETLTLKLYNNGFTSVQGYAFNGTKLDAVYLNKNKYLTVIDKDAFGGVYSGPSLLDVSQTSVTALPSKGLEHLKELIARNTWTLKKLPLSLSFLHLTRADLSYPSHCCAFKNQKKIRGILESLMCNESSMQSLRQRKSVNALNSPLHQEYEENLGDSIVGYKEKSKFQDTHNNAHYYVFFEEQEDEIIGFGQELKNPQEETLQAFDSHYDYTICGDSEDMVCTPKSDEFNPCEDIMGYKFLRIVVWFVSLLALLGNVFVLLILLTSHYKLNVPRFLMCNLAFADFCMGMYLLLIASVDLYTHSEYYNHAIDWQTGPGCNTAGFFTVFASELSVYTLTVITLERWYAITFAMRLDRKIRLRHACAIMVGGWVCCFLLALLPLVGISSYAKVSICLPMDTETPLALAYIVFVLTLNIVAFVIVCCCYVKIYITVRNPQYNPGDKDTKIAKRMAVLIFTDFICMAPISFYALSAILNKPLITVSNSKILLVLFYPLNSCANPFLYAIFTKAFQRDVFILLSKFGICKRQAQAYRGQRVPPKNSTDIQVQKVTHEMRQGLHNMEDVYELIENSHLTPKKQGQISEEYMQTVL
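cAMP rise detected as CNG-channel membrane depolarization by fluorescent dye (emission 590 nm), 30 min after compound, following 60 min dye loading containing 100 uM RO 20-1724 at room temperature. Cells: TSHR/CNG HEK 293, with parental CNG HEK 293 as control.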
A488 fluor: qHTS Assay for Spectroscopic Profiling in A488 Spectral Region; compound autofluorescence, A488 spectral region, dye equivalency; stronger effect = higher value; max dye equivalency, M; 0.1% of 59,000 active; AID 591, 2007; active = above 10 nM dye equivalent; inconclusive = 1 to 10 nM; inactive = 1 nM or less; about half of its hits are not listed in these tables;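 note: highest value over a series up to 38 µM; compound alone in buffer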
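Spectroscopic profiling in the A488 region: compounds in pH 8.0 Tris (100 mM), 15 min RT, CCD imaging with 480 nm excitation and 540 nm emission; responses normalized against A488 dye standards.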
A647 fluor: qHTS Assay for Spectroscopic Profiling in A647 Spectral Region; 59,000 tested, under 10 active; max dye-equivalent concentration, M; Compound fluorescence, A647 channel (570/671 nm), Tris buffer; active means above 1 µM dye equivalent; inconclusive means 0.1 to 1 µM; inactive means 0.1 µM or less;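 note: values scaled relative to a standard on each plate; highest value over a series up to 38 µM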
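Each compound's intrinsic fluorescence at 570 nm excitation and 671 nm emission is measured across its concentration series in 100 mM Tris, pH 8.0, after 15 min at room temperature, and reported relative to an A647 curve.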
AID923: qHTS Assay for Allosteric/Competitive Inhibitors of Caspase-1: Spectroscopic Profiling in AFC Spectral Region. compound fluorescence, AFC spectral region (405/520 nm); almost no hit is shown here. Potency, µM (doses to about 57.5 µM), without a hit: at the top dose fluorescence increase, actives largely listed as activators. 1.1% of 75,000 active; active = well fitted activation curve with a large enough effect; inconclusive = small, poorly fitted or top-dose-only effect;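 note: potency is the fitted concentration of half-maximal effect; 0% is about no effect; scaled to a free AFC standard on each plate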
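Titrations up to 57 uM read every 20 sec for 3 min (405/520 nm) with 50 nM caspase 1 and 5 uM Ac-WEHD-AFC, pH 7.5 HEPES buffer. Fluorescence-vs-time intercept gave baseline, scaled against on-plate AFC standard.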
The depositor's hits bear a star; i = inactive; ? = inconclusive; · = no result given; & = joins results of further samples; [ ] = another dose, or the depositor's remark. Only part of the results is shown (hit frequency here may not be typical).

SMILES	Resorufin autofl	TSHR ag	A488 fluor	A647 fluor	AID923
Cc1cc(C)n(-c2ccc(Cl)c(C(=O)OCC(=O)N3CCCCC3C)n2)n1 (stereo not drawn)	i	?	i	1.3e-09	-0.1%
O=C(CCS(=O)(=O)c1ccc(Cl)cc1)Oc1ccc2c(c1)OCO2	i	?	i	2.3e-08	-0.1%
O=C(O)c1cccnc1Oc1ccccc1	i	-4%	i	1e-09	0.3%
N#C/C(C(=O)N1CCOCC1)=C1/SC=C(c2ccccc2)N1c1ccccc1	·	3%	·	·	4.0%
O=c1cc(N2CCc3ccccc32)[nH]c(=O)n1-c1ccccc1	i	-3%	i	1e-09	0.7%
CN(C)S(=O)(=O)c1ccc(C(=O)Nc2ccc(F)cc2F)cc1	·	1%	·	·	0.2%
CC(=O)OC[C@@H]1O[C@H](C/C=N\OCC[C@H]2C=C[C@H](OC(C)=O)[C@@H](COC(C)=O)O2)C=C[C@@H]1OC(C)=O	·	10%[11.4 µM]	·	·	0.7%[11.5 µM]
Cc1cc(OCC(=O)Nc2ccc3oc(-c4ccncc4)nc3c2)ccc1Cl	i	·	i	3.4e-08	·
CC(C)OC(=O)CSc1nnc(CNc2nc(-c3ccccc3)cs2)n1C	i	2%	i	6.2e-09	1.0%
CCOC(=O)C1=C(N)N(c2ccccc2Oc2ccccc2)C(=O)C1	i	?	i	1e-09	2.6%
CCCOn1nnnc1-c1ccccc1	i	2%	i	7.6e-09	1.3%
Cc1cccc(Nc2nc3c(c(=O)n(C)c(=O)n3C)n2Cc2ccccc2)c1	i	-19%	i	3.4e-09	-7.5%
O=C(CSc1nnnn1-c1ccc2c(c1)OCO2)NCc1cccs1	i	15%	i	3.9e-08	0.3%
COc1ccc(NC(=O)COC(=O)c2cnccn2)cc1Cl	i	4%	i	1e-09	-2.5%
CCN1CCC[C@H]1CNC(=O)c1c(O)c(Cl)cc(Cl)c1OC	·	4%	·	·	1.5%
Cc1ccc(C(=O)Nc2ccc(S(=O)(=O)O)c3cc(S(=O)(=O)O)cc(S(=O)(=O)O)c23)cc1NC(=O)c1cccc(NC(=O)Nc2cccc(C(=O)Nc3cc(C(=O)Nc4ccc(S(=O)(=O)O)c5cc(S(=O)(=O)O)cc(S(=O)(=O)O)c45)ccc3C)c2)c1	i	?	i	1e-09	-5.0%&14%&3.0%
CCCCC(=O)NC1(C(F)(F)F)C(=O)N(Cc2ccco2)C(C)=C1C(=O)OC (stereo not drawn)	i	16µM*	i	2.7e-08	1.1%
Cc1nn(C)c(C)c1CNC(=O)c1nn2c(c1Cl)NC(c1cccs1)CC2C(F)(F)F (stereo not drawn)	i	?	i	2.3e-08	-8.7%
Nc1nnc(-c2cccnc2)s1	·	-9%	·	·	2.8%
CC(=O)[C@H]1CC[C@H]2[C@@H]3C=CC4=CC(=O)CC[C@@]4(C)[C@H]3CC[C@]12C	i	0%[25.6 µM]	i	4.2e-09	0.2%[25.7 µM]
CCn1c(SCC(=O)c2cc(OC)ccc2OC)nnc1C(C)C	i	3%	i	1e-09	1.8%
N#Cc1cccc(-c2cncnc2-n2ccnc2)c1	i	9%	i	1e-09	0.6%
CC(=O)NC(O)C(=O)c1ccco1 (stereo not drawn)	i	0%	i	1.9e-08	0.2%
CC(=O)c1cn(CC(=O)Nc2ccccc2)c2ccccc12	i	·	i	3.9e-08	-0.5%
COc1ccc(NC(=O)Cn2nnc(-c3ccccc3F)n2)cc1Cl	i	-9%	i	1.2e-08	0.1%
N#CCSc1nc(Nc2ccc3c(c2)OCO3)c2ccccc2n1	i	-10%	i	1.2e-09	12%
C[C@H]1C2=C3C(CC[C@H]4C(OCc5ccc(F)cc5C(F)(F)F)OC[C@](C)([C@@H]34)N(C(=O)OC(C)(C)C)C2)C2COC(=O)OCC21 (stereo partly drawn)	·	5%	·	·	0.4%
N#Cc1cc2c(nc1SCC(O)CS(=O)(=O)Cc1ccccc1)CCCC2 (stereo not drawn)	i	21%	i	1.1e-08	-1.9%
CSc1nsc(SC)c1NC(=O)OC1CCCCC1	i	·	i	1e-09	-1.6%
CCCS(=O)(=O)C(=C1Nc2ccccc2N1)S(=O)(=O)CCC	i	21%	i	1e-09	1.3%
CCCCCCC1/C(=N/O)CCC1C(=O)OC (stereo not drawn)	i	?	i	1.1e-08	-1.3%
COc1cc([C@@H](O)CO)ccc1OS(=O)(=O)O	i	6%	i	2.2e-08	-4.4%
O=C(Nc1cccc(NC(=O)c2nccc3ccccc23)c1)c1ccco1	i	?	i	1.4e-09	-0.5%
COc1ccc(NC(=O)N2CCC(c3ccccc3)C2)c(OC)c1 (stereo not drawn)	·	-5%	·	·	3.3%
C#C[C@]1(O)CC[C@@H]2[C@H]3CCc4cc(OC)ccc4[C@@H]3CC[C@@]21C	i	15%[25.6 µM]	i	1.6e-09	-1.4%[25.7 µM]
COc1ccc(OC)c(NC(=O)CC(NCCC2=CCCCC2)C(=O)O)c1 (stereo not drawn)	i	?	i	1.1e-08	0.1%
COc1ccccc1-n1c(N)c(C(N)=O)sc1=S	i	-5%	i	1.1e-08	-0.5%
C=CCNC(=O)CSc1ccc(Cl)cc1	i	-5%	i	4.1e-09	-1.1%
CCN1CCCC1CNC(=O)c1cc2c(=O)n(C)c3ccccc3c2n1C (stereo not drawn)	·	25%	·	·	0.3%
COc1ccc(OC)c(S(=O)(=O)Nc2ccccc2C(F)(F)F)c1	i	3%	i	2.1e-08	0.0%

A different layout for part of the listing above.
| mol | Resorufin autofl | TSHR ag | A488 fluor | A647 fluor | AID923 |
| --- | --- | --- | --- | --- | --- |
| CSc1nsc(SC)c1NC(=O)OC1CCCCC1 | i | · | i | 1e-09 | -1.6% |
| CCCS(=O)(=O)C(=C1Nc2ccccc2N1)S(=O)(=O)CCC | i | 21% | i | 1e-09 | 1.3% |
| CCCCCCC1/C(=N/O)CCC1C(=O)OC (stereo not drawn) | i | ? | i | 1.1e-08 | -1.3% |
| COc1cc([C@@H](O)CO)ccc1OS(=O)(=O)O | i | 6% | i | 2.2e-08 | -4.4% |

(list continues)
SMILES	Resorufin autofl	TSHR ag	A488 fluor	A647 fluor	AID923
CCCC(=O)c1cc(O)c(O)cc1O	·	?	·	·	-5.2%
CCOC(=O)C1CCN(C(=O)CN(c2cc(OC)ccc2OC)S(=O)(=O)c2ccccc2)CC1	·	?	·	·	0.4%
CN1CCN(CCCNC(=O)Cn2ncc3c4ccccc4n(C)c3c2=O)CC1	·	0%	·	·	-2.6%
COc1ccccc1N1CCN(Cc2ccsc2)CC1	·	17%	·	·	13%
COCCNC(=O)c1ccccc1NC(=O)C1COc2ccccc2O1 (stereo not drawn)	i	9%	i	5.7e-08	2.2%
CCOCC(=O)Nc1nnc(Cc2ccc(OC)c(OC)c2)s1	i	-1%	i	1e-09	0.7%
COc1ccc(NC(=O)NCCN2C(=O)C3C4C=CC(C4)C3C2=O)cc1 (stereo not drawn)	·	1%	·	·	-2.2%
C=CCn1c(SCC(=O)N2CCCC2)nc2cc(C(=O)NCC3CCCO3)ccc2c1=O (stereo not drawn)	i	?	i	8e-09	-2.0%
COc1ccc(OC)c(NC(=O)c2nnn(CCc3ccccc3)c2N)c1	·	30%	·	·	-0.3%
CCOc1ncccc1C(=O)OCC(=O)Nc1ncc(C(F)(F)F)cc1Cl	i	3%	i	2.8e-08	-2.3%
CC(C)C1N=C2c3ccccc3N=C(SCc3cc(=O)n4cc(Cl)ccc4n3)N2C1=O (stereo not drawn)	i	21%	i	6.1e-09	1.2%
COc1ccccc1NC(=O)N(CCCN1CCOCC1)Cc1cc2cc3c(cc2[nH]c1=O)OCO3	i	-6%	i	4.5e-09	4.4%
Cc1ccc(NC(=O)c2c(C)nc(Nc3nc4ccccc4o3)nc2C)cc1	i	-5%	i	1e-09	0.3%
COc1ncc2nc(-c3cn(C)c4ccccc34)c(=O)n(Cc3ccc(F)cc3)c2n1	i	-2%	i	1e-09	11%
COc1ccc(-c2ccc(-c3noc(-c4ccc(OC)c(OC)c4)n3)c(OC)n2)cc1	i	14%	i	4.4e-09	2.4%
Cc1cc(N=Cc2cc(Cl)ccc2O)no1	·	-11%	·	·	16%
CCn1c(SCc2nc3ccccc3c(=O)[nH]2)nnc1-c1cccnc1	i	-1%	i	2.6e-08	0.2%
CC(C)NCC(O)COc1ccc(CC(N)=O)cc1 (stereo not drawn)	i	·	i	3.6e-09	·
COc1ccc(NC(=O)Cn2nnc(C(=O)NCc3ccccc3)c2N)cc1Cl	i	-2%	i	5.8e-09	-0.3%
COC(=O)c1cc(NCc2ccccc2F)ccc1N1CCOCC1	i	-24%	i	4e-08	0.7%
CC(=O)Nc1ccc(C(=O)CSc2nnnn2C(C)C)cc1	i	2%	i	1e-09	0.2%
Cc1ccc(SCc2[nH]nc3c2C(c2ccc(C)o2)C(C#N)=C(N)O3)cc1 (stereo not drawn)	i	·	i	2.6e-08	·
CN(C)c1nc(N)nc(CSc2n[nH]c(-c3ccccc3)n2)n1	i	-2%	i	7.6e-08	-2.3%
COCCCNC(=O)CCn1c(=O)c2ccccc2n(CC(=O)Nc2cc(Cl)ccc2C)c1=O	i	2%	i	1e-09	-0.2%
COc1ccccc1C(c1nnnn1C(C)(C)C)N1CCCCCC1 (stereo not drawn)	i	13%	i	1e-09	0.9%
COc1ccccc1NC(=O)c1cc(S(=O)(=O)N2CCOCC2)ccc1Cl	i	22%	i	1.3e-09	-2.1%
O=C(CCCn1c(=O)[nH]c2cc(Cl)ccc2c1=O)NCCCN1CCCC1	i	-5%[11.4 µM]	i	2.2e-09	0.7%
CC1CCN(c2nnc(N)s2)CC1	i	?	i	2.4e-08	-1.8%
CCOC(=O)CNC(=O)CSc1nc2ncc(Br)cc2[nH]1	i	3%	i	4e-09	-1.9%
COc1ccc(N2CCN(c3oc(COc4ccc(Cl)cc4Cl)nc3C#N)CC2)cc1	i	?	i	3.8e-08	1.6%
Cc1ccc(C)c(NC(=O)NCc2ccc(Cl)cc2)c1	i	0%[11.4 µM]	i	2e-08	5.7%[11.5 µM]
Cc1cc(C)nc(/N=C2\NC(=O)CC(C(=O)O)N2c2ccc(Oc3ccccc3)cc2)n1 (stereo not drawn)	i	-5%	i	1.1e-08	-1.2%
CCCCn1c(N)c(N(CCC(C)C)C(=O)COC(=O)c2ccco2)c(=O)[nH]c1=O	i	2%	i	1e-09	-0.1%
CC(=O)Nc1ccc2nc(-c3cccnc3)[nH]c2c1	i	-2%	i	1e-09	2.7%
Clc1ccc(NC2=NCCC2)cc1Cl	i	6%	i	1e-09	0.6%
CCOc1ccc(-n2c(COc3ccccc3)nnc2SCC(N)=O)cc1	i	1%	i	1.1e-08	-0.5%
COC(=O)N1CC=CC1(C)C(=O)NCc1cc(F)cc(C(F)(F)F)c1 (stereo not drawn)	·	1%	·	·	2.6%
Cc1ccc(N)cc1CN1CCCC1=O	i	-13%	i	3.8e-08	4.0%
O=C(OCC(=O)N1CCN(C(=O)c2ccco2)CC1)C1=COCCO1	i	-1%	i	4e-09	0.0%
CC(C)(C)OC(=O)N1CCC[C@@H]1C(=O)N1CCC(C(=O)O)CC1	i	4%	i	1e-09	0.1%

A draw from above in order of length of the SMILES, smallest number first:
SMILES	Resorufin autofl	TSHR ag	A488 fluor	A647 fluor	AID923
N#C/C(C(=O)N1CCOCC1)=C1/SC=C(c2ccccc2)N1c1ccccc1	·	3%	·	·	4.0%
COc1ncc2nc(-c3cn(C)c4ccccc34)c(=O)n(Cc3ccc(F)cc3)c2n1	i	-2%	i	1e-09	11%
CCCCn1c(N)c(N(CCC(C)C)C(=O)COC(=O)c2ccco2)c(=O)[nH]c1=O	i	2%	i	1e-09	-0.1%
